From PubChem BioAssay
VACV mCherry inh: inhibitors of vaccinia virus infection (mCherry reporter signal). Vaccinia virus mCherry reporter infection, fluorescence; about a quarter of the inactives have no number. Potency, µM (series often up to 36.5 µM), for inactives: at the highest dose activity change, negative = inhibition, usual class: inhibitors. 310,000 tested, 0.63% active. AID 720579; active = well fitted inhibition curve with a large enough effect; inconclusive = small, poorly fitted or top-dose-only effect; inactive = no such curve, though single readings can be large or run the other way; tested in A549 cells; note: nearly all actives have a fitted effect of over 35% in size; inactives centre near -10
Vaccinia Venus: inhibitors of vaccinia virus (Venus reporter); 330,000 tested, 0.46% active; Vaccinia virus Venus reporter expression, fluorescence; AID 720580; Potency, µM (top dose mostly 36.5 µM), without a hit: at the highest dose activity change, negative = inhibition, most hits filed as inhibitors; active means well fitted inhibition curve with a large enough effect; inconclusive means small, poorly fitted or top-dose-only effect; inactive means no such curve, though single readings can be large or run the other way; tested in A549 cells; note: nearly all actives have a fitted effect of over 30% in size; inactives centre near -10
The depositor's hits bear a star; i = inactive; u = inconclusive; x = not tested or not shown; & = joins results of further samples; [ ] = dose if it differs, or a comment. % is set by controls: 0 for no effect and ±100 for the full control effect; potency is the fitted concentration of half-maximal effect.

Values run as follows: VACV mCherry inh	Vaccinia Venus
1: COc1cc2c(cc1OC)-c1cc(Nc3ccccc3C)nc(=O)n1CC2
 : -20%	-27%
2: CC(C)(C)c1ccc(OC(=O)Cn2c(C(F)(F)F)nc3ccccc32)cc1
 : -12%	-8%
3: COc1ccccc1S(=O)(=O)N(C)C[C@H]1Oc2ncc(Br)cc2C(=O)N([C@H](C)CO)C[C@H]1C
 : -8%	-15%
4: O=C(C1CCCN(c2nnc(-n3cccc3)s2)C1)N1CCN(c2ccccc2)CC1 (stereo not drawn)
 : u	u
5: COc1ccc(C(=O)Nc2c(O)ccc3ccccc23)cc1OC
 : -17%	5%
6: CCNS(=O)(=O)c1ccc(NC(=S)NCc2ccco2)cc1
 : -13%	-9%
7: CCOC(=O)C1CCN(Cc2nnc(-c3ccccc3C)o2)CC1
 : i	-10%
8: COCC(C)OC(=O)c1c(N)n(CCCN2CCOCC2)c2nc3ccccc3nc12 (stereo not drawn)
 : u	-6%
9: CCc1noc(C)c1C(=O)NNC(=O)c1nn(CC)c(=O)c2ccccc12
 : i	-15%
10: C/C(CC(=O)Nc1cc(C)ccn1)=N\NC(=O)c1cccc(F)c1
 : -17%	-15%
11: Cc1ccc(C)c(NC(=O)COC(=O)c2nn(C)c(=O)c3ccccc23)c1
 : -12%	-3%
12: COc1cc(/C=C/c2cc[n+](C)c3ccccc23)cc(OC)c1OC
 : 35%[activator]	14%
13: CCOC(=O)C1=C(C)SC2=NS(=O)(=O)CCN21
 : i	-10%
14: O=C(Nc1ccc(F)cc1)C1CCC(N2C(=O)c3ccccc3C2=O)CC1 (stereo not drawn)
 : -5%	-6%
15: O=C(COC(=O)CCC(=O)c1ccc(F)cc1)NC1CCCCC1
 : -18%	-1%
16: COCC(C)n1c(C)cc(C(=O)CSc2nnnn2-c2ccc(O)cc2)c1C (stereo not drawn)
 : i	-8%
17: Brc1ccc(CN2CCCCCC2)cc1
 : i	-7%
18: O=C(Cn1c(=O)nc(-c2ccccc2)c2ccccc21)Nc1ccc(Cl)c(C(F)(F)F)c1
 : i	-6%
19: Cc1ccccc1-n1nc(C)c2cc(C(=O)N3CCN(S(=O)(=O)c4ccc(Cl)cc4)CC3)sc21
 : x	-27%
20: CCOc1ccc(S(=O)(=O)N(CC)CC(=O)NCc2ccco2)cc1C
 : u	u

Compound profiles, as listed above. Order of screens: VACV mCherry inh	Vaccinia Venus
Cc1ccc(C)c(NC(=O)COC(=O)c2nn(C)c(=O)c3ccccc23)c1 reads -12%	-3%
COc1ccccc1S(=O)(=O)N(C)C[C@H]1Oc2ncc(Br)cc2C(=O)N([C@H](C)CO)C[C@H]1C reads -8%	-15%
O=C(Nc1ccc(F)cc1)C1CCC(N2C(=O)c3ccccc3C2=O)CC1 (stereo not drawn) reads -5%	-6%

The list continues.
Values run as follows: VACV mCherry inh	Vaccinia Venus
21: CCc1ccc(-c2cn3c(n2)sc2cc(C(=O)NCCCc4ccccc4)ccc23)cc1
 : -1%	-10%
22: O=C(Nc1ccc(F)cc1F)c1cc2ncc(CCCl)cn2n1
 : -14%	-2%
23: COc1ccc(-c2c(C)n([O-])c3c([n+]2=O)CCCCC3)cc1OC
 : -6%	-5%
24: NC(=O)c1cc(NC(=O)c2ccc(NS(=O)(=O)c3cccs3)cc2)cc(C(N)=O)c1
 : -10%	-2%
25: CCCOc1ccc(F)cc1-c1cc(C(=O)Nc2ccc(OC)nc2)[nH]n1
 : -14%	-15%
26: COc1cccc(NC(=O)CSc2nc3ncc(Br)cc3[nH]2)c1
 : -17%[7.34 µM]	-8%[7.34 µM]
27: Cc1ccc(S(=O)(=O)N(CC(O)CN2CCOCC2)c2cccc([N+](=O)[O-])c2)cc1 (stereo not drawn)
 : -25%	-8%
28: COc1cc(C2C(=O)N(C3CCCCC3)CC(=O)N2CCc2ccccc2)ccc1OC(C)C (stereo not drawn)
 : -14%	-7%
29: Cc1ccc(OCC(=O)NCCNC(=O)c2ccncc2)cc1
 : -7%	3%
30: CCOCCCNC(=O)C(NC(=O)Cc1c[nH]c2ccccc12)c1ccc(OC)cc1 (stereo not drawn)
 : -14%	-16%
31: CCn1cc(-c2csc(N)n2)c(C)n1
 : -2%	-1%
32: CN(CCOc1ccccc1)S(=O)(=O)c1ccc2oc3ccccc3c2c1
 : -15%	-14%
33: O=C(NCCn1cc(SCC(=O)N2CCOCC2)c2ccccc21)c1ccccc1
 : i	-4%
34: COc1ccc(S(=O)(=O)N2CCN(C/C=C/c3ccccc3)CC2)cc1NC(C)=O
 : i	-13%
35: CCOC(=O)c1c(C)oc2nc(C)nc(NCCc3ccc(Cl)cc3)c12
 : -9%	-10%
36: CN1CCN(P(=O)(c2ccccc2)c2nc3ccccc3s2)CC1 (stereo not drawn)
 : u	-14%
37: CC(C)COCC(O)CCC(=O)NNC(=S)Nc1ccccc1 (stereo not drawn)
 : -3%	5%
38: Cc1cc(OCc2cc(C(=O)N(C)CCc3cnn(C)c3)no2)cc(C)c1Cl
 : -5%	-23%
39: COCCNc1cc(-c2ccccc2CN(C)C)ncn1
 : i	0%
40: COc1cccc(OC)c1C(=O)NC(C)c1ccccc1 (stereo not drawn)
 : x	-12%

Copied from above for reference:
Values run as follows: VACV mCherry inh	Vaccinia Venus
39: COCCNc1cc(-c2ccccc2CN(C)C)ncn1
 : i	0%
40: COc1cccc(OC)c1C(=O)NC(C)c1ccccc1 (stereo not drawn)
 : x	-12%

New compounds follow:
Values run as follows: VACV mCherry inh	Vaccinia Venus
41: Cc1cc(C)cc(NC(=O)Cn2cc(C=O)c3ccccc32)c1
 : -2%	-5%
42: Cc1nnsc1-c1nc2ccccc2[nH]1
 : -12%	0%
43: CC(=O)N(c1nc(CCl)cs1)c1c(C)cc(C)cc1C
 : i	-3%
44: O=C(NCCc1ccc(Cl)cc1)c1nnc(Cc2ccc(Cl)cc2)o1
 : i	-13%
45: Cc1cc(C(=O)OCC(=O)Nc2nnc(C(C)C)s2)c2ccccc2n1
 : -12%	-4%
46: N#CCCN(C(=O)COC(=O)c1ccc2c(=O)n3c(nc2c1)CCC3)c1ccccc1
 : -5%	-4%
47: CCN(CC)c1ccc2c(c1)C(=O)N(C)C2=O
 : -21%[1.46 µM]	-28%
48: COc1ccc(-c2cn3cc(C(=O)NN)ccc3n2)cc1
 : u	u
49: OCCC1CN(Cc2cnc(-c3ccccc3)s2)CCN1C1CCCCC1 (stereo not drawn)
 : i	-5%
50: O=C(O)C1(c2ccccc2)CCN(S(=O)(=O)c2ccc(Cl)cc2)CC1
 : i	-8%
51: O=C1CC(NS(=O)(=O)c2cccnc2)CN1c1cccc(F)c1 (stereo not drawn)
 : -15%	-12%
52: Cc1nn(CCC(=O)NNC(=S)NCC(C)C)c(C)c1Br
 : i	-7%
53: COc1cc2c(c(OC)c1OC)-c1ccc(N(C)CC(OC)OC)c(=O)cc1[C@@H](NC(C)=O)CC2
 : -30%	-26%
54: O=C(Nc1ccncc1)c1cc(S(=O)(=O)N2CCN(c3ccccc3)CC2)ccc1Cl
 : -6%	-23%
55: CCCCn1c(SCC(=O)N2CCOCC2)nc2c1c(=O)n(C)c(=O)n2C
 : i	2%
56: O=C(N/N=C/c1ccc2nccnc2c1)c1cccc([N+](=O)[O-])c1
 : -1%	-1%
57: COc1ccc(C)cc1S(=O)(=O)N1CC(C)OC(C)C1 (stereo not drawn)
 : -3%	-16%
58: CCC(C)Nc1nc(N)c([N+](=O)[O-])c(Nc2ccccc2OC)n1 (stereo not drawn)
 : -4%[7.34 µM]	-16%[7.34 µM]
59: C[C@H](O)[C@@H]1CN2CCc3c([nH]c4ccccc34)[C@@H]2C[C@@H]1N(C)C(=O)Nc1cc(Cl)cc(Cl)c1
 : -21%	-30%
60: Cc1cccc2sc(N(CCN(C)C)C(=O)c3cc(Cl)sc3Cl)nc12
 : -13%	-9%
61: NC(=O)C1=CN(Cc2ccc(Cl)cc2)CCC1C(F)(F)F (stereo not drawn)
 : -14%	-14%
62: O=C1[C@@H]2CSC(c3ccc(C(F)(F)F)cc3)N2C(=O)N1c1ccccc1 (stereo partly drawn)
 : -1%	-1%
63: CC(Sc1nncn1C)C(=O)Nc1nnc(C(C)C)s1 (stereo not drawn)
 : i	-8%
64: CCCCN(C(=O)CNC(=O)c1ccco1)C(C(=O)NC1CCCC1)c1ccc(OC)cc1 (stereo not drawn)
 : i	-8%
65: C[C@H]1CCC(=O)N([C@H](CSc2ccc(Br)cc2)Cc2ccccc2)CC1
 : -19%&-4%	u
66: O=C1N(Cc2cccc(Cl)c2)C[C@@H]2C[C@@H](c3c[nH]c4ccccc34)N3CCC[C@@]123
 : u	176%[activator]
67: CC1(C(=O)NS(=O)(=O)c2ccccc2C(F)(F)F)CCN1C(=O)CCc1ccccc1 (stereo not drawn)
 : i	-10%
68: O=C(O)CCc1cccc2ccccc12
 : 28%	-3%
69: COc1c(C)cccc1C(=O)NCCCNC(=O)c1ccc(C)nc1
 : -8%	-2%
70: COc1ccccc1-c1cnc(C(O)c2ccc(Cl)c(F)c2)[nH]1 (stereo not drawn)
 : i	-15%
71: COc1cc(C(=O)O)ccc1Cl
 : -8%	-13%
72: CN(Cc1ccccc1)C(=O)c1[nH]cnc1C(=O)Nc1cccc(Cl)c1
 : -13%	-25%
73: Cc1cccn2c(=O)c3cc(C(=O)NC4CCCCC4)n(C)c3nc12
 : i	-15%
74: CSc1ccc(CN2CCC(n3nccc3NC(=O)c3ccccc3C)CC2)cc1
 : -18%[7.34 µM]	-11%[7.34 µM]
75: Cc1ccc(-n2c(C)c(C)c3c(NCCCO)ncnc32)cc1
 : -20%	u
76: O=c1oc2ccccc2c(O)c1/C=N/c1ncccn1
 : i	-14%
77: CC(C)(C)c1ccc(C(=O)CS(=O)(=O)c2ccccc2)cc1
 : x	-15%
78: CN(Cc1ccccc1)C1=CC(=[N+]2CCCC2)CC(C)(C)C1
 : -25%	-4%
79: O=C(NCc1ccc(F)cc1)C(c1ccccc1)N(C(=O)c1csnn1)C1CCCC1 (stereo not drawn)
 : -9%	-4%
80: CCOC(=O)c1c(C)c(-c2ccccc2)n(CC(=O)NC(CC)Cc2ccccc2)c1C (stereo not drawn)
 : -4%	-2%
81: COc1ccc(NC(=O)c2oc3ccc(S(=O)(=O)N4CCC5(CC4)OCCO5)cc3c2C)cc1Cl
 : -17%	-22%
82: CC(C)c1ccc(NC(=O)c2cn(C3CCCC3)c(=O)c3c2c2ccccc2n3C)cc1
 : -10%	-14%
83: Cc1cc(C)cc(NC(=O)CSc2ccc(-c3ccco3)nn2)c1
 : i	-17%
84: COC(=O)Cc1ccc(NC(=S)NCCO)cc1
 : i	-14%
85: COCCNc1nc(-c2ccccc2)nc2ccccc12
 : i	-14%
86: CCOC(=O)C1C(c2ccccc2)C(C(=O)OCC)C1c1ccccc1 (stereo not drawn)
 : -1%	-9%
87: CNc1ncc(C(=O)C(C)(C)C)s1
 : x	-14%
88: CN1CCN(S(=O)(=O)NC[C@H]2O[C@@H](n3cnc4c(N)ncnc43)[C@H](O)[C@@H]2O)CC1
 : -12%	-8%
89: CCOc1ncccc1C(=O)Nc1cc(S(=O)(=O)N2CCOCC2)ccc1OCC(F)(F)F
 : i	-14%
90: CCn1ccc(C(=O)Nc2ccc(S(=O)(=O)Nc3ccccc3OC)cc2)n1
 : x	u
91: COc1cccc(CNc2nc3cc(-c4ccccc4C)sc3c(=O)n2C)c1OC
 : -3%	-26%
92: CN(C(=O)C1CCOC1)c1nnc(-c2cccnc2)s1 (stereo not drawn)
 : -1%	-14%
93: CC(=O)c1ccc(NC(=O)c2ccc3c(Cl)c4c(nc3c2)CCCC4)cc1
 : -9%	-11%
94: CCOc1ccc(/C=C2\SC(=S)N(NS(=O)(=O)c3ccc(C)cc3)C2=O)cc1OC
 : -19%	-6%
95: COCCNC(=O)c1ccccc1-c1nc(-c2ccccc2Cl)no1
 : x	-8%
96: CCOC(=O)C1CCCCN1C(=O)/C(=C/c1ccc(OC)cc1)c1ccc(OC)c(OC)c1 (stereo not drawn)
 : -1%	-6%
97: Cc1c(Cl)cccc1NC(=O)c1cc(-c2ccc3c(c2)OCO3)on1
 : 13%	7%
98: CC(C)(C)NC(=O)COC(=O)c1ccc(NC(=O)CC#N)cc1
 : u	17%
99: Cc1ccnc(NC(=O)Nc2ccc3c(c2)OCO3)c1
 : -13%	-10%
100: COC(=O)C1C(=O)C2=C(CC1C)Nc1ccccc1NC2c1cccs1 (stereo not drawn)
 : -14%	1%

The listing continues:
Values run as follows: VACV mCherry inh	Vaccinia Venus
101: Cc1ccccc1CSc1nnc(C)c(=O)[nH]1
 : -9%	-10%
102: COC[C@@H]1CCCN1[C@@H]1CS(=O)(=O)N[C@H]1COCc1ccccc1
 : i	-7%
103: COc1ncnc2c1ncn2CCCNC1CCN(Cc2ccccc2)CC1
 : 0%	-13%
104: Nc1ccccc1C(=O)NNC(=O)C(=O)/C=C(\O)c1ccccc1
 : -25%	-8%
105: COc1ccc(S(=O)(=O)n2nc(-c3ccco3)nc2NCc2ccc(OC)c(OC)c2)cc1
 : -2%	3%
106: Cn1nnnc1SCC(=O)NNC(=O)c1ccc(Br)cc1
 : -10%	-13%
107: COc1ccc(S(=O)(=O)N2CCC3(CC2)CC(=O)c2ccccc2O3)cc1
 : -4%	-15%
108: Cc1ccc(C)c(OCC(=O)Nc2cccc(S(=O)(=O)NC3=NCCCCC3)c2)c1
 : -4%	-16%
109: COc1cc(CN(C)Cc2cc(=O)oc3cc(C)c(Cl)cc23)ccc1OC(F)F
 : i	2%
110: O=C(NCc1ccccc1)c1cc(=O)nc2sc(-c3ccccc3)nn12
 : -14%	-4%
111: Cc1ccc(Cn2cc(CN3CC(N4CCN(C5CCN(C)CC5)CC4)CS3(=O)=O)nn2)cc1 (stereo not drawn)
 : -2%	-5%
112: Nc1nnc(SCC(=O)NNC(=O)c2ccccc2)s1
 : -20%	-16%
